HPGD inh: inhibitors of human 15-hydroxyprostaglandin dehydrogenase (HPGD) | purified HPGD, NADH fluorescence kinetic, PGE2 substrate | Potency, µM, inactives show at the highest dose activity change, negative = inhibition, usual class: inhibitors | hit rate 4.3% among 150,000 | AID 894; active = well fitted inhibition curve with a large enough effect (not every such curve was filed as active); inconclusive = small, poorly fitted or top-dose-only effect, or another doubt; inactive = no such curve, though single readings can be large or run the other way;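 note: top concentration of the series not given in the record; plate controls included wells without enzyme; inactives centre near -10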
Target sequence (P15428 whole entry, looked up): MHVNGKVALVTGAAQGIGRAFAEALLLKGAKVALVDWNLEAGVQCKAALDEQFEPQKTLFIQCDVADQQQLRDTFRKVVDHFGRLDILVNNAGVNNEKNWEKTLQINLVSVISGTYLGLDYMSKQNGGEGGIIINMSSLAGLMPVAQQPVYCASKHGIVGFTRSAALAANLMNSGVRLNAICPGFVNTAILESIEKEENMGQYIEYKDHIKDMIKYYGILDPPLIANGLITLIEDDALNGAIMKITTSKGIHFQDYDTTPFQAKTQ
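NADH formation kinetics: reaction with 30 uM PGE2 and 1 mM NAD+ (final), 20 nM enzyme, Tris-HCl pH 8 with Tween 20, after 15 min compound preincubation at room temperature. Fluorescence change, last versus first of five reads.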
The depositor's hits bear a star; ? = inconclusive; & = joins results of further samples. % is set by controls: 0 for no effect and ±100 for the full control effect; potency is the fitted concentration of half-maximal effect. Only part of the results is shown; the hit share may differ from the screen's.

SMILES	HPGD inh
O=C(CSc1ncccc1-c1nc2ccccc2[nH]1)NC1CC1	?
Cc1ccc(C2=[N+]([O-])C3(CCCCC/C3=N\O)N(O)C2(C)C)o1 (stereo not given)	-14.5%
CC(=O)Oc1cccc(N2C(=O)c3ccccc3C2=O)c1	-7.4%
COCCN(C(=S)Nc1cccc(OC)c1)C1CCN(C(C)=O)CC1	-5.5%
Cc1ccc(NC(=S)NN(C)c2cc(C)nc(C)n2)cc1	-7.9%
CC1CCC2(OC1)OC1CC3C4CC[C@@H]5CC(O)CC[C@@]5(C)C4CC(=O)[C@]3(C)C1C2C (stereo not given in full)	-12.4%
CC(C(=O)NCc1ccccc1)N1C(=O)CN(C)C(=O)c2ccccc21 (stereo not given)	-22.2%
Cn1ccnc1SCC(=O)Nc1cccc2ccccc12	25.1µM*
O=C(C1CCC(=O)N1Cc1ccccc1Cl)N1CCN(c2cccc(Cl)c2)CC1 (stereo not given)	3.0%
O=C1CC(c2ccccc2Cl)C2=C(COC2=O)N1 (stereo not given)	-3.5%

Reprinted from the part before: five entries; new compounds follow.
SMILES	HPGD inh
CC1CCC2(OC1)OC1CC3C4CC[C@@H]5CC(O)CC[C@@]5(C)C4CC(=O)[C@]3(C)C1C2C (stereo not given in full)	-12.4%
CC(C(=O)NCc1ccccc1)N1C(=O)CN(C)C(=O)c2ccccc21 (stereo not given)	-22.2%
Cn1ccnc1SCC(=O)Nc1cccc2ccccc12	25.1µM*
O=C(C1CCC(=O)N1Cc1ccccc1Cl)N1CCN(c2cccc(Cl)c2)CC1 (stereo not given)	3.0%
O=C1CC(c2ccccc2Cl)C2=C(COC2=O)N1 (stereo not given)	-3.5%
O=C(NC1CCCC1)C1C2C=CC3(CN(Cc4cccs4)C(=O)C13)O2 (stereo not given)	-6.7%
Cc1ccc(S(=O)(=O)Nc2ccc(C(=O)Nc3cc(C)on3)cc2)cc1	-17.5%
CCN=C1SC(CC(=O)NC(N)=O)C(=O)N1CC (stereo not given)	4.6%
N#Cc1c(N2CCCCC2)nc(N2CCCCC2)c2c1CCN(Cc1ccccc1)C2	?
Cc1cc(C)n(-c2ccc(Cl)c(C(=O)O)n2)n1	-0.8%
CCC(=O)N[C@@H]1CCc2cccc(OC)c2C1	-21.5%
CC(C)N(C(=O)N1CCC(c2nc(-c3ccncc3)no2)CC1)C(C)C	-1.7%
CCCn1c(NC(=S)Nc2ccccc2)nc2ccccc21	-20.7%
O=c1c2ccccc2nnn1CSc1nnc(-c2cccc(S(=O)(=O)N3CCCCC3)c2)o1	-22.5%
CC(=O)O[C@H](C(=O)O[C@@H]1C[C@@H](CCC[C@H]2O[C@H](C(=O)OC(C)C)CC[C@@H]2C)O[C@@H](CC#N)C1)c1ccccc1	-9.5%
O=C(O)c1ccc2c(c1C(=O)O)C(=O)OC2(c1ccc(O)cc1)c1ccc(O)cc1	-7.5%
Cn1nc(OCCOc2ccccc2)ccc1=O	-3.9%
CCOc1cc(OCC)cc(C(=O)NC(=S)Nc2cccc(C(F)(F)F)c2)c1	-27.4%
CCc1ccc(NC(=O)CC2NCCNC2=O)cc1 (stereo not given)	-12.0%
CC1CC(C)(C)NC(=S)N1CC(=O)NCc1ccccc1Cl (stereo not given)	-6.8%
COc1ccc(CNC(=O)C2CCCN(c3nccc(C)n3)C2)cc1 (stereo not given)	-24.3%
CCN(CC)CCCC(C)NC(=O)c1ccc(Cc2nc3ccccc3[nH]2)cc1 (stereo not given)	-1.5%
NCCCC[C@@H]1NC(=O)c2cc([N+](=O)[O-])cc(I)c2SC[C@@H](C(=O)NCC(N)=O)NC(=O)CNC1=O	-5.2%
CN1/C(=C/C=N/n2cnnc2)C(C)(C)c2ccccc21	-23.6%
Nc1ccc2nc(CN3CCOCC3)[nH]c2c1	-21.5%
COc1cc(-c2c(C#N)c(N)nc3c2c(C)nn3-c2ccc(C)c(C)c2)cc(OC)c1OC	?
N#Cc1ccc(C23CC4(C2)[C@H](CN(Cc2cccnc2)[C@@H]4c2ccccc2)C3c2ccccc2)cc1 (stereo not given in full)	-7.3%
CC(=O)OC(C(=O)N1CCN(c2ccc(F)cc2)CC1)c1ccccc1 (stereo not given)	-3.5%
CCN1C(=O)/C(=C/c2cnn(C)c2C)SC1=S	-1.1%
COc1ccc(OCc2nnc(SCC(=O)NNC(=O)c3ccc(C)cc3)n2C)cc1	0.2%
CC(C)Oc1ccc(Cn2c(-c3ccco3)n[nH]c2=S)cc1	?
COc1ccccc1C1C2=C(CC(C)(C)CC2=O)Nc2nnnn21 (stereo not given)	-12.4%
CC1Cc2ccccc2N1C(=O)CSc1nnc2c(n1)[nH]c1ccc(F)cc12 (stereo not given)	-6.8%
CCc1[nH]c(=O)c(C#N)c2c1CCCC2	?
COc1cc(NC(=O)c2ccc(Cl)cc2)c(OC)cc1NC(=O)CN1CCOCC1	-7.9%
COc1ccc(OC)c(-c2csc(NC(=O)CSc3ccc(Br)cc3)n2)c1	-17.9%
C=CC[n+]1c(-c2ccc(OC)cc2)csc1NNC(=O)Nc1ccccc1	-14.2%
COc1ccc(CN(Cc2ccccn2)S(=O)(=O)c2ccc(-n3cnnn3)c(OC)c2)cc1	-22.1%
CNc1nc(C)nc(-c2ccccc2O)n1	-2.4%
CCOC(=O)C1=C(Cn2cnc3ccccc32)NC(=O)NC1c1cc(C)ccc1C (stereo not given)	-1.1%
CC1CCC(NC(=O)c2cc3c(s2)CS(=O)(=O)C3)CC1 (stereo not given)	-1.8%
O=C(Nc1ccc2c(c1)CCC2)c1cnn2c1NC(c1ccco1)CC2C(F)(F)F (stereo not given)	-13.7%
N#Cc1ccc(CSc2nnc(-c3cccc(S(=O)(=O)N4CCCCC4)c3)o2)cc1	-5.7%
O=C(CSc1ncnc2c1oc1ccccc12)Nc1cccc(Cl)c1	-9.6%
CCCCNC(=O)C(C#N)c1nc2ccccc2nc1N1CCN(c2ccccc2F)CC1 (stereo not given)	-3.4%
Cc1cc(C)nc(Sc2ccc3nnc(C(F)(F)C(F)(F)C(F)(F)F)n3n2)n1	-9.4%
Cc1ccc(C2CC(=O)Oc3cc(C)c(Br)c(C)c32)cc1 (stereo not given)	-7.2%
CCN(CC)c1nc(N)nc(N(c2ccccc2)c2ccccc2)n1	-14.9%
CN(C)S(=O)(=O)c1ccc(N2CCCC2)c(C(=O)NCc2cccc(C(F)(F)F)c2)c1	-16.4%
COc1ccc(Cl)cc1-c1nc(-c2ccc(NC(=O)c3cccs3)cc2)no1	?
Cc1onc(-c2ccccc2)c1C(=O)N1CCc2ccccc21	-9.3%
O=C(Nc1ccc(N2CCOCC2)c(Cl)c1)c1cccnc1	-9.0%
N#Cc1c(N)c(C(=O)c2ccc(Cl)cc2)n2c1CCC2	-4.4%
Cc1occc1C(=O)NNC(=O)C1CCCCC1	-7.9%
COc1ccc(NC(=O)CNS(=O)(=O)c2ccc(Cl)cc2)cc1	?

The results go on.
SMILES	HPGD inh
O=C(CCCOc1ccc(Cl)cc1Cl)N1CCCc2ccccc21	?
Cc1ccc(C)c(C(=O)O/N=C(\N)c2ccc(Br)cc2)c1	?
Cc1nn(CCC(=O)NNC(=S)Nc2ccc(F)cc2)c(C)c1Br	-11.8%
O=C(c1ccccc1)c1ccccc1C(=O)N1CCOCC1	-0.5%
CCc1ccc(-c2nnn(Cc3nn[nH]n3)n2)cc1	-20.1%
CS(=O)(=O)N(CC(=O)N1CCN(c2ccccc2)CC1)c1ccc(Cl)c(C(F)(F)F)c1	-20.0%
Cc1ccc(S(=O)(=O)N2CCC(C(=O)O)CC2)cc1C(=O)O	-12.6%
CCOC(=O)C(C)Sc1nc2ccccc2c(=O)n1CC (stereo not given)	-1.4%
CCc1c(C)nc(SCC(=O)CC(=O)OC(C)C)c(C#N)c1C	-22.6%
C=CCn1c(-c2ccc(OC)c(OC)c2)n[nH]c1=S	-2.9%

Looked up by structure from the entries so far:
SMILES	HPGD inh
CCc1ccc(-c2nnn(Cc3nn[nH]n3)n2)cc1	-20.1%
O=C(CCCOc1ccc(Cl)cc1Cl)N1CCCc2ccccc21	?
Cc1ccc(C)c(C(=O)O/N=C(\N)c2ccc(Br)cc2)c1	?
CCOC(=O)C(C)Sc1nc2ccccc2c(=O)n1CC (stereo not given)	-1.4%
C=CCn1c(-c2ccc(OC)c(OC)c2)n[nH]c1=S	-2.9%
O=C(c1ccccc1)c1ccccc1C(=O)N1CCOCC1	-0.5%
CCc1c(C)nc(SCC(=O)CC(=O)OC(C)C)c(C#N)c1C	-22.6%

New compounds follow.
SMILES	HPGD inh
COc1ccc(CCN(C)CCc2ccc(OC)c(OC)c2)cc1OC	-13.3%&-0.1%
CC(C)NC(=O)c1cc2ccccc2o1	-11.6%
COC(=O)c1ccccc1NC(=O)c1cc2n(n1)C(C(F)F)CC(C(F)F)N2 (stereo not given)	-7.9%
CCOC(=O)CSc1nc(C2CC2)nc2ccccc12	-11.2%
Cc1[nH]c2ccccc2c1C(=O)CN1CCN(C2CCCCC2)CC1	-7.6%
CS(=O)(=O)Oc1ccc(Br)cc1/C=C1/N=C(c2ccco2)OC1=O	-14.3%
Cn1c(=O)c2c(nc(SCC(=O)NCc3ccc4c(c3)OCO4)n2Cc2ccc(F)cc2)n(C)c1=O	-11.5%
CCOc1cccc2c1OC1(C)CC2NC(=O)N1c1cccc(Cl)c1 (stereo not given)	-11.8%
Nc1nc(-c2ccc3ccccc3c2)cc(-c2cc(-c3ccc4ccccc4c3)nc(N)n2)n1	-3.3%
O=C(N1CCOCC1)C12CC3CC(C1)CC(C(=O)N1CCOCC1)(C3)C2	-4.8%
Cc1cc2cc(C)c3nnc(SCC(=O)N4CCc5ccccc54)n3c2cc1C	-18.0%
COc1ccc(Cn2c(=O)[nH]c3cc(C(=O)NCCCN4CCCC4)ccc3c2=O)cc1	-11.9%
COc1ccc(-c2cc(N)n(S(=O)(=O)c3ccc(F)cc3)n2)cc1OC	-15.4%
Cc1ccc2c(CC(=O)OC(C)C(=O)Nc3ncc(Cl)cc3Cl)coc2c1 (stereo not given)	-2.2%
COC(=O)C1=C(C(=O)OC)[C@@H]2N(C)c3ccccc3[C@@]23C[C@@H](CO)N(C(=O)C2CCC2)C3=N1	-8.5%
COc1ccc(-n2ncc3c(N4CCCc5ccccc54)ncnc32)cc1	?
O=C(Nc1cccnc1)c1cc(-c2ccccc2)on1	-14.8%
CN(C)Cc1cc(C(C)(C)C)c(O)c(C(C)(C)C)c1	-1.9%
Cc1cc2nc3c(c(=O)n2[nH]1)CCCC3	?
CCn1c(=N)n(CC(O)COc2cccc(C)c2)c2ccccc21 (stereo not given)	-10.3%
COc1ccc(NC(=O)c2ccc(C(=O)c3ccccc3)o2)cc1	-8.4%
COc1ccc(/C=N/N=C2\SCC(=O)N2c2c(C)n(C)n(-c3ccccc3)c2=O)cc1OC	-15.2%
Cc1cccc(NC(=O)CNC(=O)COc2ccc(-c3ccc(C#N)cc3)cc2)c1C	?
COc1ccc(C(=O)c2cc([N+](=O)[O-])ccc2N2CCCC2)cc1	-4.7%
COc1ccc(OC)c(CNC(=O)Cc2c(C(=O)O)[nH]c3ccccc23)c1	-10.9%
O=C(Oc1ccc2c3c(c(=O)oc2c1)CCC3)c1ccco1	25.2%
Cc1ccc(/C(N)=N/OC(=O)c2ccco2)cc1	-0.4%
Cc1cc(C(F)F)n2ncc(C(=O)O)c2n1	-18.2%
O=C(NCc1ccco1)c1ccc(C(=O)NCc2ccco2)s1	-12.4%
COc1ccc(/C(N)=N/OC(=O)Cc2ccccc2[N+](=O)[O-])cc1	-3.6%
N=c1c(S(=O)(=O)c2ccccc2)cc2c(=O)n3ccccc3nc2n1CC1CCCO1 (stereo not given)	?
O=C(NCC1CCCO1)c1ccc2c(=O)n(CCc3ccccc3)c(=O)[nH]c2c1 (stereo not given)	?
O=S1(=O)CCC(NS(=O)(=O)c2cccc3cccnc23)C1 (stereo not given)	9.4%
CCOc1ccccc1NC(=O)COC(=O)c1cc(C(=O)OC)cc([N+](=O)[O-])c1	-2.5%
COc1cc(NC(=O)Cc2ccccc2)ccc1NC(=O)c1ccco1	-5.9%
Cc1snc(S(=O)(=O)/C(C#N)=N/Nc2cccc(C(F)(F)F)c2)c1C#N	-9.3%
Cc1nn(Cc2ccc(F)cc2)c(Cl)c1/C=N/NC(=O)c1cccnc1	-12.5%
CC[C@@](N)(C(=O)O)c1ccc(C(=O)O)cc1	-0.2%
Nc1nnc(Cc2ccc(Cl)cc2)s1	-8.0%
Cc1cc(=O)n2[nH]c(-c3cccnc3)nc2n1	-6.7%
CCc1nc(SCC(=O)Nc2c(C)n(C)n(-c3ccccc3)c2=O)n[nH]1	1.4%
CS(=O)(=O)Nc1cccc(-c2cncnc2NCc2cccs2)c1	-20.1%
O=C(COc1ccc(S(=O)(=O)N2CCOCC2)cc1)Nc1ccccc1C(F)(F)F	-10.4%
O=C(Nc1nc2c(s1)CCCC2)c1cccs1	-25.5%
O=C(c1cc(-c2ccccn2)nc2c(Cl)cccc12)N1CCN(C(=O)C2CCCO2)CC1 (stereo not given)	-15.7%
Cc1nc(SCC(N)=O)[nH]c(=O)c1CCC(C)C	-6.0%
O=C(CCNc1ccc(F)cc1)c1ccco1	-2.0%
CSCc1ccc(C(=O)Nc2cccc(C)c2C)cc1	-13.6%
Cc1ccc(C(c2sc3nc(C)nn3c2O)N2CC(C)OC(C)C2)cc1 (stereo not given)	-13.2%
CC(=O)c1nnn(-c2nc(N)nc(N(c3ccccc3)c3ccccc3)n2)c1C	-12.6%

Continued.
SMILES	HPGD inh
COc1ccc(-c2cc(=O)c3c(OC)c(OC)c(OC)c(OC)c3o2)cc1OC	?
Cc1ccc(C(=O)CC(c2cccs2)S(=O)(=O)c2ccc(C)cc2)cc1 (stereo not given)	-11.2%
CCCCc1cc2c(s1)CCCC/C2=N/O	-24.8%
CCOC(=O)c1c(C)[nH]c(C(=O)OCc2c(C)noc2C)c1C	-10.8%
CCN(C(=O)N(CC)c1ccccc1)c1ccccc1	-8.8%
O=C(NC1CCCCC1)N(C1=NCCCCC1)c1ccc(Br)cc1	-15.4%

High-throughput results deposited in PubChem by National Center for Advancing Translational Sciences (NCATS).
